# Screening data: PubChem, National Center for Advancing Translational Sciences (NCATS)
# VDR inh: vitamin D3 receptor (human) inhibition | P11473 | VDR-SRC2-3 peptide fluorescence polarization, 2 h | Potency, µM, for inactives: max response, negative = inhibition, most hits filed as inhibitors | hit rate 0.93% among 400,000 | AID 504847; active = well fitted inhibition curve with a large enough effect; note: series mostly up to about 120 µM
# Target sequence (P11473 whole entry, looked up): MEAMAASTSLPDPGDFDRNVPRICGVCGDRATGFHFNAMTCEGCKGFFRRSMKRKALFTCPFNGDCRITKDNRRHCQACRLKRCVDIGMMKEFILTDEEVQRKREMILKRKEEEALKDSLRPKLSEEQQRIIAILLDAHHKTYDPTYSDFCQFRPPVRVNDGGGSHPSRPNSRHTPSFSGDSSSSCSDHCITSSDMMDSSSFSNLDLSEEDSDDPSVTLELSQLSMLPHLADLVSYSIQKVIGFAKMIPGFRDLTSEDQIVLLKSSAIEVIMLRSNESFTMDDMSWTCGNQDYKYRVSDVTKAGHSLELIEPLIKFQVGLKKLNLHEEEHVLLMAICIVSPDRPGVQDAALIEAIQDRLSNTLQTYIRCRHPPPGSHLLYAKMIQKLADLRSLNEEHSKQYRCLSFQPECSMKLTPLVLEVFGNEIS
#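 Signal is fluorescence polarization, reporting how far test compounds block the interaction of VDR with the SRC2-3 coregulator peptide after a 2 h room-temperature incubation.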
# Starred values were filed as active, the others as inactive; & = joins results of further samples; [ ] = another dose, or the depositor's remark. % is set by controls: 0 for no effect and ±100 for the full control effect; potency is the fitted concentration of half-maximal effect. This is a subset; the hit share may differ from the screen's.
SMILES,VDR inh
Cc1ccc(/C=C/C(=O)Nc2nnc(SCc3ccc(C#N)cc3)s2)o1,-21%
Cc1ccc2c(CC(=O)N(C)c3c(N)n(Cc4ccccc4)c(=O)[nH]c3=O)coc2c1,-22%
CS(=O)(=O)N1CCC2(CCN(Cc3ccc(C#N)cc3)CC2)CC1,15%
CC1(C)CC(=O)C(C(=S)Nc2ccc(F)cc2)=C(NCCN2CCOCC2)C1,-5%
COc1cccc(Cn2cc(C(=O)NCCN(C)C)nn2)c1,-15%
Cc1ccc(-n2cc[nH]c2=S)cc1C,-19%
C/C=C\C=C\C(=O)Nc1cccc(C2=NOC3(C2)C[C@@H](C(N)=O)N(C(=O)C(c2ccccc2)c2ccccc2)C3)c1 (stereo partly drawn),-22%
N#Cc1cccc(NC(=O)COC(=O)c2ccccc2Sc2ccccc2C#N)c1,1%
Cc1c(NC(=O)C2Cc3ccccc3CN2C(=O)c2ccco2)c(=O)n(-c2ccccc2)n1C (stereo not drawn),-5%
Cc1cc(CNC(=O)c2cccc([N+](=O)[O-])c2C)c2ccccc2n1,-10%
CC1CCCCC1NC(=O)COc1ncnc2sccc12 (stereo not drawn),0%
COc1ccc2c(c1)CC/C(=C\c1ccc(C)o1)C2=O,-28%
CCOc1ccc(NC(=O)CN2C(=O)S/C(=C/c3cccn3C)C2=O)cc1,20%
CCN(CC)c1ccc(CN(C(=O)c2cccs2)C2CCS(=O)(=O)C2)cc1 (stereo not drawn),2%
Cn1c(O)c(C2=c3ccccc3=NC2=O)sc1=Nc1ccc(Cl)cc1,-11%
CCN1CCN(c2cc(C)c3cc(NC(=S)NCc4cccs4)ccc3n2)CC1,0%
Cc1ccc(N(CC(=O)NC(C)C)C(=O)CCC(=O)Nc2nccs2)cc1,-9%
CCOc1ccc(N(C)S(=O)(=O)c2cc(-c3cc(C)no3)ccc2C(C)C)cc1,-12%
CC(=O)NC12CC3CC(C1)CC(C(=O)N(C)CC(=O)Nc1cccc(F)c1)(C3)C2,-6%
Cc1ccc(OCc2cn3cccnc3n2)cc1,-5%
CCC1(c2ccc(Cl)cc2)NC(=O)N(CC(=O)N2CCN(C(=O)c3ccco3)CC2)C1=O (stereo not drawn),-8%
CCC1S/C(=N\S(=O)(=O)c2cccs2)N(C2CCCCC2)C1=O (stereo not drawn),-6%
Nc1ccc(-c2nnc(-c3ccccc3)o2)cc1,5%
Cc1ccc(CN(C(=O)COc2ccc([N+](=O)[O-])cc2)C2CCS(=O)(=O)C2)o1 (stereo not drawn),-7%
Cc1ccc(O)c(CNc2ccccn2)c1,-6%

# Next section; the last 2 above are carried over.
SMILES,VDR inh
Cc1ccc(CN(C(=O)COc2ccc([N+](=O)[O-])cc2)C2CCS(=O)(=O)C2)o1 (stereo not drawn),-7%
Cc1ccc(O)c(CNc2ccccn2)c1,-6%
COc1ccc(N/C=C/C(=O)c2ccccc2)cc1,6%
Cc1cc(=O)oc2cc(NC(=O)[C@H](CCCCN)NC(=O)[C@H](CC3CCCCC3)NC(=O)OCC3c4ccccc4-c4ccccc43)ccc12,43%[activator]
C=CCOc1ccccc1CN1CCCN(C)CC1,-19%
O=C(Nc1ccccc1C(F)(F)F)c1cc(-c2ccc(O)cc2)on1,5%
COc1ccccc1Nc1nc(N)nc(CN2CCN(Cc3ccccc3)CC2)n1,0%
CC(=O)c1ccc(NC(=O)C2=CC(c3ccc(C)cc3)=NS(=O)(=O)N2C)cc1,13%
O=c1[nH]c(/C=C/c2ccccc2Cl)c([N+](=O)[O-])c(=O)[nH]1,35µM*
O=C(NCc1ccccc1)C(=O)NCC1COc2ccccc2O1 (stereo not drawn),-8%
CN(C)S(=O)(=O)N1CCN(C(=O)c2cccc(Br)c2)CC1,-6%
COc1ccc(-n2c(C)nc3c(cnn3-c3ccc(Cl)cc3)c2=O)cc1,3%
COc1ccc(N2CC(C(=O)N/N=C/c3cccs3)CC2=O)cc1 (stereo not drawn),-13%
CC(C)OCC1CC(CC(=O)NC(=S)Nc2cccc([N+](=O)[O-])c2)C(=O)O1 (stereo not drawn),-12%
CCCCN1C(=O)C(O)(CC(=O)c2ccc(CC)cc2)c2cc(Br)ccc21 (stereo not drawn),6%
CC(C)CCNC(=O)Cn1c(NCCC(C)C)nc2c1c(=O)n(C)c(=O)n2C,-11%
CCc1cc(=O)[nH]c(SCc2nc(-c3ccccc3)no2)n1,2%
CC(C)NC(=O)CSc1nc(N)c(NC(=O)c2ccccc2F)c(=O)[nH]1,-4%
O=C(CSc1ccc2nnc(-c3cccnc3)n2n1)Nc1ccccc1,-18%
CCCn1c(N)c(N(CCOC)C(=O)c2ccc(N(C)S(=O)(=O)c3ccc(C)cc3)cc2)c(=O)[nH]c1=O,-4%
Cc1ccc(S(=O)(=O)N2CCN(CC(=O)Nc3ccc(N4CCOCC4)cc3)CC2)cc1C,2%
COc1ccc(C2(c3ccc(OC)cc3)NC(=O)N(CC(=O)Nc3cc(C)on3)C2=O)cc1,-7%
Cc1ccc(NC(=O)c2ccc(CN3CC(=O)N4CCCCC4C3=O)cc2)cc1C (stereo not drawn),12%
N/C(Cc1ccc([N+](=O)[O-])cc1)=N\OC(=O)CC1CCCCC1,-4%
CC(C)(C)c1ccc(S(=O)(=O)N2CCC(CO)(CC3CCCCO3)CC2)cc1 (stereo not drawn),-1%
COc1ccc(/C=N/NC(=O)CCc2nc3ccccc3[nH]2)cc1,0%
COc1ccc2nc(NC(=O)c3cccnc3SC)sc2c1,-6%

# The last 2 compounds of the section before come first, to join the parts.
SMILES,VDR inh
COc1ccc(/C=N/NC(=O)CCc2nc3ccccc3[nH]2)cc1,0%
COc1ccc2nc(NC(=O)c3cccnc3SC)sc2c1,-6%
CCN(CC)Cc1c(O)ccc2c(C)c(CC(=O)OC)c(=O)oc12,-1%
CCCCCCCCCCCCCC(=O)N[C@H](C)[C@@H](O)c1ccccc1,10%&3%
COc1ccc(C(=O)NCC(=O)NCCc2c[nH]c3ccccc23)cc1OC,-6%
COc1ccc(Cl)cc1S(=O)(=O)N1CCN(Cc2ccc3c(c2)OCO3)CC1,1%
Cc1ccc(Nc2nc(C(=O)NCc3ccco3)cs2)cc1,-7%
CNC1C(O)C(OC2C(N)CC(N)C(OC3OC(CN)=CCC3N)C2O)OCC1(C)O (stereo not drawn),0%
O=C(CCSCc1cccc(F)c1)NCCc1ccccc1,6%&14%
CCCCC1CCC(c2nc(-c3cccnc3)no2)CC1 (stereo not drawn),-3%
CC(C)(C)C(=O)Nc1cccc2[nH]ncc12,-9%
C=C1CSc2nc(=O)c3c4c(sc3n21)CCC4,-1%
COc1ccc(Nc2cc(C)nc3c(C)cccc23)cc1OC,0%
C[C@H](CO)N1C[C@H](C)[C@H](CN(C)Cc2ccc(Oc3ccccc3)cc2)Oc2ccc(NC(=O)Nc3cccc4ccccc34)cc2CC1=O,4%
COCCCNC(=O)CN1CCN(Cc2ccc(Cl)cc2)C1=O,-2%
CC(C)CC(NC(=O)OC(C)(C)C)C(=O)NC(C(=O)NC(C)C(N)=O)C(C)C (stereo not drawn),2%
CC(C)Cn1c(N)c(C(=O)COC(=O)Cc2cccs2)c(=O)n(C)c1=O,-1%
CC1CCCCN1C(=O)/C(=C\c1ccccc1)c1ccccc1 (stereo not drawn),-14%
COc1cccc(NC(=O)C/C(C)=N/NC(=O)C2CCCCC2)c1,6%
Cn1c(SCc2nnc3n2CCCCC3)nc2ccccc21,-1%
O=c1nc(-c2ccccc2)nc(-c2ccccc2)[nH]1,17%
N#C/C(=C\C=C\c1ccccc1[N+](=O)[O-])C(=O)NCc1ccccc1,-12%
COc1ccc(OCC(O)Cn2c(N3CCCCC3)nc3c2c(=O)n(C)c(=O)n3C)cc1 (stereo not drawn),8%
NS(=O)(=O)c1ccc(CCNC(=O)CSCC(=O)Nc2ccc(Cl)cc2)cc1,-10%
CCNC(=S)N(Cc1ccc2c(c1)OCO2)C1CC(=O)N(c2ccc(F)cc2)C1=O (stereo not drawn),17%
O=C(CCN1C(=O)c2ccccc2S1(=O)=O)Nc1ccc(F)c([N+](=O)[O-])c1,-4%
CCCNC(=O)CSc1nc(-c2ccc(OC)cc2)cc(C(F)(F)F)n1,18%
SMILES,VDR inh
CCCCn1c(NCc2ccccc2NS(=O)(=O)c2ccc(C)cc2)nc2ccccc21,8%
c1ccc2cc(C3=NCCN3)ncc2c1,-1%
COc1cc(NS(=O)(=O)c2ccc(NC(=O)CCC(=O)O)cc2)nc(OC)n1,-14%
CC(=O)N1CCCC1c1nc2ccccc2n1Cc1cccc(Cl)c1 (stereo not drawn),11%
COc1ccc(NC(=O)c2ccc3c(=O)n4nc(Nc5cc(C)ccc5C)sc4nc3c2)cc1,5%
Cc1ccc(NC(=O)Cc2nc(COC(=O)c3c(F)cccc3Cl)cs2)cc1,15%
CC1(C)Cc2ccccc2C(NNC(=O)c2ccncc2)=N1,15%
CCN(CC)CCNC(=O)c1ccccn1,1%
CCOc1ccc(-c2nc(C#N)c(N3CCOCC3)o2)cc1,-8%
O=S(=O)(NC1CCCC1)c1ccccc1Cl,6%
Cc1c(N(C)S(=O)(=O)c2cc(C(=O)NCC3CCCO3)ccc2Cl)c(=O)n(-c2ccccc2)n1C (stereo not drawn),1%
COc1cc(NS(=O)(=O)c2ccc(NC(=O)COc3ccc(C)cc3)cc2)nc(OC)n1,10%
COC(=O)C1=C(C)NC(=O)CC1c1cccc(OC)c1OC (stereo not drawn),1%
COc1ccc(-n2nc(C(=O)NCC(=O)N3CCOCC3)c3ccccc3c2=O)cc1Cl,-8%
Cc1ccccc1-c1ccccc1CN1[C@@H](C(C)C)COCCS1(=O)=O,22%
CC(C)C(=O)NNc1ccccc1,0%
COc1ccccc1N1CCN(CC(O)COc2ccc3c(c2)CCC3)CC1 (stereo not drawn),6%
Cc1ccc(C(=O)Cn2nnc3ccccc32)cc1,9%
CN(CC(=O)NCc1cccs1)S(=O)(=O)c1cccc2nsnc12,14%
NC(=S)N/N=C1\c2ccccc2-c2c(C(=O)O)cccc21,-23%
CCSc1ncnc2c(C#N)c3n(c12)CCCCC3,-23%
COc1cc(OC)cc(C(=O)NC2CCCN(Cc3ccc(Cl)cc3)C2)c1 (stereo not drawn),-8%
O=C(NC1CC2CCCC(C1)N2Cc1ccco1)NC12CC3CC(CC(C3)C1)C2 (stereo not drawn),10%
CCC(C)c1ccccc1N1CC(C(=O)Nc2ccccc2N2CCCC2)CC1=O (stereo not drawn),9%
O=C(CN1CCN(c2ncccn2)CC1)N1CCCC1,-11%
SMILES,VDR inh
Cc1nc2nc(C)c(NS(=O)(=O)c3ccc(Cl)cc3)c(=O)n2[nH]1,0%
COc1cc(NC(=O)c2ccc3c(c2)OCO3)ccc1NC(=O)C(C)C,3%
O=C1c2ccccc2C(=O)N1CN(C(=O)COc1ccc(Cl)cc1Cl)c1cccc(F)c1,-19%
O=C(NCCc1ccc(Cl)cc1)c1cc2c(s1)-c1ccccc1OC2,-2%
O=C1c2oc3ccccc3c(=O)c2C(c2ccccc2)N1Cc1ccc2c(c1)OCO2 (stereo not drawn),0%
Nc1c(C(=O)NCc2ccccc2)nnn1Cc1cccc(Cl)c1,2%
Cc1ccc2nc(N(CCCN(C)C)C(=O)c3ccc(S(=O)(=O)N4CCOCC4)cc3)sc2c1,-2%
O=[N+]([O-])c1ccc(O)c(Nc2ncnc3ccccc23)c1,-13%
COc1cc(SC)ccc1C(=O)Nc1cccc(S(=O)(=O)NC2=NCCCCC2)c1,4%
CCOC(=O)C(Oc1ccc(=O)n(-c2ccccc2)n1)C(C)=O (stereo not drawn),9%
O=c1c2ccccc2oc2nc3n(c(=O)c12)CCCS3,5%
CC1=CC(C)[C@@H]2COC(c3ccc(O)cc3)[C@H]1C2C (stereo partly drawn),-2%
Cc1c(C(=O)O)oc2ccc3c(c12)C(O)CC(C)(C)O3 (stereo not drawn),27%
Cc1nc(-c2ccc(-n3nncc3-c3ccco3)cc2)cs1,23%
CCOc1ccc(OCCCC(=O)NC2=NCCS2)cc1,-11%
CN(c1ccccc1C(=O)O)S(=O)(=O)c1ccc2[nH]c(=O)oc2c1,-2%
NC(=O)[C@H]1CC2(CC(c3cccc(NC(=O)COc4ccc(Cl)cc4)c3)=NO2)CN1C(=O)CC(c1ccccc1)c1ccccc1 (stereo partly drawn),-3%
CCOc1ccc(-c2nc(Cn3ccn4nc(-c5ccc(OCC)c(Cl)c5)cc4c3=O)c(C)o2)cc1,-12%
CCOC(=O)C1(Cc2ccc(OC)cc2)CCN(C(=O)C2=CCCC2)CC1,7%
N#CCCN1CCNCC1,-2%
CC(C)(C)C1CCc2[nH]c3ccccc3c(=O)c2C1 (stereo not drawn),0%
CC1CCN(C(=O)c2ccc(NS(C)(=O)=O)cc2)CC1,3%

# Reprinted at random: three compounds from above
SMILES,VDR inh
CCOc1ccc(-c2nc(Cn3ccn4nc(-c5ccc(OCC)c(Cl)c5)cc4c3=O)c(C)o2)cc1,-12%
COc1cc(SC)ccc1C(=O)Nc1cccc(S(=O)(=O)NC2=NCCCCC2)c1,4%
COc1cc(NC(=O)c2ccc3c(c2)OCO3)ccc1NC(=O)C(C)C,3%

# Part of the list above, with values ahead of the structure:
VDR inh,canonical_smiles
-11%,CCOc1ccc(OCCCC(=O)NC2=NCCS2)cc1
-2%,CN(c1ccccc1C(=O)O)S(=O)(=O)c1ccc2[nH]c(=O)oc2c1
-3%,NC(=O)[C@H]1CC2(CC(c3cccc(NC(=O)COc4ccc(Cl)cc4)c3)=NO2)CN1C(=O)CC(c1ccccc1)c1ccccc1 (stereo partly drawn)
-12%,CCOc1ccc(-c2nc(Cn3ccn4nc(-c5ccc(OCC)c(Cl)c5)cc4c3=O)c(C)o2)cc1
7%,CCOC(=O)C1(Cc2ccc(OC)cc2)CCN(C(=O)C2=CCCC2)CC1
-2%,N#CCCN1CCNCC1
0%,CC(C)(C)C1CCc2[nH]c3ccccc3c(=O)c2C1 (stereo not drawn)
